INS promoter inh: TRM-6 insulin promoter activity inhibition. TRM-6 cells (human fetal islet line), insulin promoter-eGFP reporter, imaging; reporter expression induced with tamoxifen. actives 0.9% (n = 130,000). inhibition, % at 2 µM;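 active = inhibition above the mean plus 3 SD, with well images judged a real hit on visual review, cut at about 60% in these data, passing the limit was not always enough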
GALR2 ag: agonists of human galanin receptor 2 (GALR2); O43603; GALR2-expressing cells, agonist activation read-out; actives 0.48% (n = 140,000); activation, %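 (tested at 5 µM)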;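 active = above mean plus 3 SD of all compounds, about 5% in these data, not always enough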;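 note: 0% = vehicle buffer wells and 100% = reference agonist at full effect; tested in CHO reporter cells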
HSV augment: increases HSV replication in cells; AID 1956; HSV replication augmentation in cells, fold increase; actives 0.005% (n = 220,000); maximum fold increase;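 active = peak rise of 1.5-fold or more in the series; tested in PC3 cells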;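 note: first round at 10 µM; read as green reporter fluorescence; hits show the peak of a series up to 25 µM; 1 = signal of infected wells without compound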
PKD1 inh: inhibitors of human PKD1 kinase. Q15139. inhibition, %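 (about 10 µM by stock and volumes)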. AID 797. actives 0.056% (n = 200,000). PKD1 kinase fluorescence polarization assay;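 active = inhibition of 50% or more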;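 note: controls were vehicle for no effect and a reference inhibitor for full effect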
RGS16-Gao: regulators of human RGS16-Galphao interaction. actives 0.38% (n = 220,000). binding response (% of control), % at 10 µM. O15492+P09471. bead-based flow cytometry RGS16-Galphao binding, fluorescence; actives lie on both sides. AID 1441;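 active = below 25% or above 175%, edge rows of some plates excepted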;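 note: Galphao activated by GDP with aluminum fluoride before binding; 100% = wells without compound and 0% = beads without RGS; some results beyond the cut were filed as inactive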
Target sequence (O15492 whole entry, looked up): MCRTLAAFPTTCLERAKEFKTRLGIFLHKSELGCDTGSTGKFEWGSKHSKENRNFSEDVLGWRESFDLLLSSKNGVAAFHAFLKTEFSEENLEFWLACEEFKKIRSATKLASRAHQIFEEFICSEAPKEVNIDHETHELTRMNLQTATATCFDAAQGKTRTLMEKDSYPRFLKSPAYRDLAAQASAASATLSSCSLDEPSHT
Target sequence (P09471 whole entry, looked up): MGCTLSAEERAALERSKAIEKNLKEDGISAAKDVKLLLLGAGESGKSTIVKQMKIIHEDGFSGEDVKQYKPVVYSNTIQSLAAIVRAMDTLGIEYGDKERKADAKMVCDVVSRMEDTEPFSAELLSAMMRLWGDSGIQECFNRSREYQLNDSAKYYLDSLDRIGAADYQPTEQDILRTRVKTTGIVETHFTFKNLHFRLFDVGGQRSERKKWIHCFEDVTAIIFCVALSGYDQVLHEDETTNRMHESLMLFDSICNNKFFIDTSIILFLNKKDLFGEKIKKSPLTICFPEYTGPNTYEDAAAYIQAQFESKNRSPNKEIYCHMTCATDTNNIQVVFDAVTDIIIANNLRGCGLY
INS promoter inh cell count: also measured in INS promoter inh; calls as there; normalized cell count, %; measured here: cell count, toxicity; reference of the scale not given here;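 cells exposed to compound for 48 h; stained nuclei by imaging scaled within each plate; lower means fewer cells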
HSV augment primary fold: further read-out of HSV augment, marked with its call; fold increase; compound at 10 µM; measured here: primary screen fold increase 10 uM; tested in PC3 cells;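 GFP signal in the first replicate; 1 = infected wells without compound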
* = called active by the depositor; i = inactive; x = no result given.

SMILES	INS promoter inh	INS promoter inh cell count	GALR2 ag	HSV augment	HSV augment primary fold	PKD1 inh	RGS16-Gao
O=C(c1cnccn1)N1CCc2ccccc2C1	x	x	x	i	0.96	-8	99
CCN(Cc1ccccc1)C(=O)CSc1ccccc1C(=O)O	x	x	x	i	0.95	1	104
Cc1ccc(NC(=S)N(Cc2cccc(Br)c2)CC2CCC(C(=O)O)CC2)cc1 (centres undefined)	x	x	x	i	1.1	1	95
COc1cc(NS(=O)(=O)c2cccc3nsnc23)c(C(=O)O)cc1OC	13	106	-0.3	i	1	-2	97
Fc1ccc(NC(=S)Nc2ccc(Cl)cc2)cc1	x	x	x	i	1	1	104
CC(Sc1nnc(C2CCCCC2)n1N)C(=O)NCc1ccc2c(c1)OCO2 (centres undefined)	x	x	-3.6	i	0.96	-9	98
CCC1=C(OC(=O)N(CC)CC)N2C(=O)OC(=NCc3ccccc3)[C@]2(C)[C@H]2C1=CC[C@H]1C(=O)NC(=O)[C@H]12	x	x	x	i	0.89	x	84
CCc1cccc2c1NC(=O)C21N2CCCC2C(C(=O)c2ccc3ccccc3c2)C12C(=O)Nc1ccccc12 (centres undefined)	0	76	0.7	i	0.95	-6	108
CO/N=C(/CS(=O)(=O)c1ccc(Br)cc1)c1ccc(OC)cc1	16	109	-0.2	i	0.87	2	98
Cc1c(NC(=O)c2cc(-c3cccs3)on2)c(=O)n(-c2ccccc2)n1C	x	x	-2.6	i	1.1	-7	85
CCN(CC)CCn1c(=N)n(CCOc2ccccc2)c2ccccc21	-47	116	-0.8	i	0.46	-5	103
N#Cc1c(NCCCO)nc(NCc2ccccc2)c2c1CCN(Cc1ccccc1)C2	x	x	0.3	i	1.2	2	106
O=C(O)C(CC1CCCCC1)N1CCS(=O)(=O)CC1 (centres undefined)	18	39	x	i	1	2	84
Cc1cc(C)n(C(=O)c2ccncc2)n1	x	x	-1.3	i	0.99	-1	103
O=C(CCOc1ccccc1)Nc1nnc(-c2ccc3c(c2)OCCO3)o1	x	x	x	i	0.96	4	100
Cn1cccc1C1C(C#N)=C(N)OC2=C1C(=O)CC(C)(C)C2 (centres undefined)	-23	108	x	i	0.94	1	108
Cc1ccc(/C=N/NC(=O)CNC(=O)c2cccc([N+](=O)[O-])c2C)o1	x	x	x	i	1	6	97
CC(=O)N(Cc1ccco1)C1(C(=O)NC2CCCCC2)CCCCC1	-29	164	-3.9	i	0.94	-4	105
CCN(CC)S(=O)(=O)c1cccc(NC(=O)c2ccc(Br)cc2)c1	x	x	x	i	0.73	4	113
O=C1C=C(NCc2ccccc2)C2(CCCCC2)O1	-75	136	0.2	i	0.68	-3	108
Cc1sc2ncnc(NCCN3CCOCC3)c2c1C	-193	80	-1.3	i	0.97	-2	109
O=C(NC(=S)N1CCOCC1)c1ccc([N+](=O)[O-])cc1	x	x	-1.2	i	0.92	-11	101
Cc1ccc(CN2CCN(/N=C\c3cccc([N+](=O)[O-])c3)CC2)cc1	x	x	x	i	0.97	5	107
Cc1ccc(/C=N/Nc2cc(C)nc(N3CCOCC3)n2)cc1	x	x	x	i	0.97	x	100

Some of these compounds in order of their number in GALR2 ag, lowest first.
molecule,GALR2 ag,HSV augment,HSV augment primary fold,PKD1 inh,RGS16-Gao
CC(Sc1nnc(C2CCCCC2)n1N)C(=O)NCc1ccc2c(c1)OCO2 (centres undefined),-3.6,i,0.96,-9,98
Cc1c(NC(=O)c2cc(-c3cccs3)on2)c(=O)n(-c2ccccc2)n1C,-2.6,i,1.1,-7,85
CCN(CC)CCn1c(=N)n(CCOc2ccccc2)c2ccccc21,-0.8,i,0.46,-5,103

Compound profiles (already shown). Screens in order: INS promoter inh	INS promoter inh cell count	GALR2 ag	HSV augment	HSV augment primary fold	PKD1 inh	RGS16-Gao
CCN(CC)S(=O)(=O)c1cccc(NC(=O)c2ccc(Br)cc2)c1 is listed with x	x	x	i	0.73	4	113
O=C(CCOc1ccccc1)Nc1nnc(-c2ccc3c(c2)OCCO3)o1 is listed with x	x	x	i	0.96	4	100

(further entries)
SMILES	INS promoter inh	INS promoter inh cell count	GALR2 ag	HSV augment	HSV augment primary fold	PKD1 inh	RGS16-Gao
O=C1Nc2ccccc2C(O)(C(=O)N2CCCCC2)N1c1ccccc1 (centres undefined)	-21	142	-0.5	i	0.97	-8	104
Cc1ccnc(NC(=O)Cn2ccc([N+](=O)[O-])n2)c1	-6	124	-1.5	i	0.96	6	122
Cc1cccc2cc(/C=N/Nc3ccc(C(=O)O)cc3)c(Cl)nc12	x	x	x	i	1.2	x	100
COc1cc(/C=c2\sc3nc(-c4ccncc4)nn3c2=O)ccc1OC(C)=O	0	102	-1.2	x	x	2	97
CC(C)(C)c1cc(CCC(=O)N2CCNCC2)c(C(C)(C)C)cc1O	66	141	-1.0	i	0.88	1	101
O=C(NCC1CCCO1)C1CCCN(S(=O)(=O)c2cccc3nsnc23)C1 (centres undefined)	42	127	-3.4	i	0.99	-10	223
COc1ccc(/C=C/S(=O)(=O)NCc2ccccc2)cc1OC	-36	54	x	i	0.94	-4	127
CS(=O)(=O)N1CCCC(C(=O)Nc2ccc3c(c2)OCCO3)C1 (centres undefined)	x	x	x	i	0.92	-13	102
Cc1cc(C)n2nc(C(=O)NCc3ccco3)nc2n1	-362	62	-1.0	i	0.93	0	x
CC(/C=N/NC(=O)c1ccncc1)=C\c1ccc(C(C)C)cc1	23	85	-1.0	i	1.1	7	102
O=C(CCCCCNC(=O)c1ccccc1Br)N=Nc1c(O)[nH]c2ccccc12	x	x	x	i	1.1	1	108
CC(C)Oc1ccc(C(=O)O)cc1	x	x	x	i	1.3	x	100

Quoted from the listing.
Under INS promoter inh, CC(C)(C)c1cc(CCC(=O)N2CCNCC2)c(C(C)(C)C)cc1O is entered as 66
Under RGS16-Gao, O=C(NCC1CCCO1)C1CCCN(S(=O)(=O)c2cccc3nsnc23)C1 (centres undefined) is entered as 223
Under HSV augment primary fold, Cc1cccc2cc(/C=N/Nc3ccc(C(=O)O)cc3)c(Cl)nc12 is entered as 1.2
Under PKD1 inh, O=C1Nc2ccccc2C(O)(C(=O)N2CCCCC2)N1c1ccccc1 (centres undefined) is entered as -8
Under HSV augment primary fold, CC(C)Oc1ccc(C(=O)O)cc1 is entered as 1.3
Under RGS16-Gao, CS(=O)(=O)N1CCCC(C(=O)Nc2ccc3c(c2)OCCO3)C1 (centres undefined) is entered as 102
Under INS promoter inh, COc1cc(/C=c2\sc3nc(-c4ccncc4)nn3c2=O)ccc1OC(C)=O is entered as 0

Carrying on.
SMILES	INS promoter inh	INS promoter inh cell count	GALR2 ag	HSV augment	HSV augment primary fold	PKD1 inh	RGS16-Gao
Nn1c(SCc2cn3ccccc3n2)nnc1-c1ccncc1	x	x	x	i	0.82	2	104
COC(=O)C(CCSC)NC(=O)CNS(=O)(=O)c1ccc(Cl)cc1 (centres undefined)	0	54	0.1	i	0.92	-12	101
CC(=O)c1cnc2nc(C(F)(F)F)nn2c1C	18	78	-2.4	i	1.2	-5	101
COCCNC(=O)CN1C(=O)CSc2ncccc21	x	x	-1.2	i	1	2	62
CS(=O)(=O)N1CCSC1c1ccc(Br)cc1 (centres undefined)	x	x	x	i	0.98	x	100
CCOC(=O)N1CCN(S(=O)(=O)c2ccc(C(=O)Nc3nnc(C)o3)cc2)CC1	38	146	-0.4	i	0.9	-9	100

Screening data as filed in PubChem BioAssay.

Not a hit list, and some 1.3% of all compounds hit somewhere here.
